Compound activity: PubChem BioAssay, National Center for Advancing Translational Sciences (NCATS)
SARS PLP yeast = blocks SARS-CoV papain-like protease in a yeast assay. hit rate 0.19% among 330,000. S. cerevisiae expressing SARS-CoV PLpro, growth rescue; control for the full effect not named in the record. Potency, µM (titrated, usually from 32.9 µM), without a hit: top-dose activity, positive = growth rescue; note: 0% is about no effect; nearly all actives have a fitted effect of over 55% in size; growth read by luminescence after 48 h
Cruzain noTriton = cruzain (T. cruzi) inhibition without detergent | Potency, µM, for the others: max response, negative = inhibition, actives largely listed as inhibitors | hit rate 2.3% among 200,000 | P25779 | purified cruzain, Z-FR-AMC fluorescence, no detergent | AID 1476; active = well fitted curve in the direction sought with a large enough effect; inconclusive = small, poorly fitted or top-dose-only effect, or another doubt; inactive = no such curve, though single readings can be large; an effect the other way counts as inactive or inconclusive;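 note: plate controls were enzyme without inhibitor for no effect and buffer without enzyme for full effect; nearly all actives have a fitted effect of over 40% in size; top concentration of the series not given in the record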
Target sequence (P25779 123-467 limits assumed): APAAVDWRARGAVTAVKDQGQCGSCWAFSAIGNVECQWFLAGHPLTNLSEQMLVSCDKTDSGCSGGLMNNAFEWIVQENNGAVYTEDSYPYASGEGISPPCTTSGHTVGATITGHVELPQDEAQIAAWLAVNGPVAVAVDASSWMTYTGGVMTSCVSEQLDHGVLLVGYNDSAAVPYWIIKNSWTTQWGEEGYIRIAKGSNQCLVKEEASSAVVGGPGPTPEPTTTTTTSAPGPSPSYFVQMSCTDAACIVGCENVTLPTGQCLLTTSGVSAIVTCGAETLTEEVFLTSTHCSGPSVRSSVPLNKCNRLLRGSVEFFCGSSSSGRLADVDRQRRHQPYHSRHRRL
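Detergent-free condition (0.00005% Triton X-100) in acetate buffer pH 5.5 with DTT. 1.5 nM enzyme and compound were pre-mixed 15 min, then 2 uM Z-FR-AMC substrate added; reaction progress from fluorescence change between first and third reads (60 s).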
StopGo reporter = FMDV 2A StopGo reporter, luciferase signal. human cells with a luciferase reporter of 2A StopGo recoding; control for the full effect not named in the record. Potency, µM (highest dose often 57.9 µM), without a hit: top-dose signal change, negative = less light. hit rate 1.2% among 410,000. AID 1159524; active = well fitted falling curve with a large enough effect; inconclusive = small, poorly fitted or top-dose-only effect; inactive = no such curve, though single readings can be large or run the other way; tested in HEK293T cells; note: % is set by controls: 0 for no effect and ±100 for the full control effect; nearly all actives have a fitted effect of over 45% in size; luciferase light after 4 h
Lassa entry inh = Lassa virus entry inhibition; Lassa virus pseudotype entry inhibition, cell reporter; control for the full effect not named in the record; Potency, µM (series often up to 37.9 µM), for the others: at the top dose activity change, negative = inhibition, hits mostly inhibitors; hit rate 1.2% among 300,000; AID 540256; active means well fitted inhibition curve with a large enough effect; inconclusive means small, poorly fitted or top-dose-only effect, or effect the other way; inactive means flat fitted curve, though single readings scatter; tested in HEK293 cells; note: % is set by controls: 0 for no effect and ±100 for the full control effect; nearly all actives have a fitted effect of over 50% in size; luciferase read-out
Cruzain Triton = inhibitors of Trypanosoma cruzi cruzain with detergent; purified cruzain, Z-FR-AMC fluorescence, 0.01% Triton; Potency, µM, for inactives: max response, negative = inhibition, actives largely listed as inhibitors; P25779; hit rate 0.43% among 200,000; AID 1478; active = well fitted curve in the direction sought with a large enough effect; inconclusive = small, poorly fitted or top-dose-only effect, or another doubt; inactive = no such curve, though single readings can be large; an effect the other way counts as inactive or inconclusive;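 note: plate controls were neutral wells for no effect and buffer without enzyme for full effect; nearly all actives have a fitted effect of over 40% in size; top concentration of the series not given in the record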
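Read-out: AMC fluorescence (360 nm excitation, 450 nm emission), four reads over 2 min, first-to-third difference used. Conditions: cruzain 1.5 nM, Z-FR-AMC 2 uM, pH 5.5 acetate, 5 mM DTT, 0.01% Triton X-100.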
NS1 function inh = influenza NS1 inhibition; AID 2326; hit rate 0.4% among 270,000; S. cerevisiae slowed by influenza A NS1, growth recovery by OD600; Potency, µM (series often up to 46.1 µM), without a hit: at the top dose activity, positive = more growth; note: actives are rising curves; nearly all actives have a fitted effect of over 50% in size
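OD600 was taken as the measure of yeast growth restored by compound in an NS1-expressing S. cerevisiae strain. Cells had been washed out of glucose medium and diluted 1:100 into galactose -URA medium, pH 6.0.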
Marburg entry inh = Marburg virus entry inhibition; Marburg virus pseudotyped entry inhibition, cell reporter; control for the full effect not named in the record; about a third of the inactives were read at about 46 µM; Potency, µM (series often up to 37.8 µM), inactives show top-dose activity change, negative = inhibition, hits mostly inhibitors; hit rate 1.8% among 300,000; AID 540276; active = well fitted inhibition curve with a large enough effect; inconclusive = small, poorly fitted or top-dose-only effect, or effect the other way; inactive = flat fitted curve, though single readings scatter; tested in HEK293 cells; about a fifth of its hits are not listed in these tables; note: % is set by controls: 0 for no effect and ±100 for the full control effect; luciferase read-out
RE007 growth inh = less growth of the S. pombe RE007 Vpr strain; S. pombe RE007 Vpr strain, BacTiter-Glo ATP luminescence, 24 h; control for the full effect not named in the record; Potency, µM (highest dose often 92.2 µM), for inactives: at the highest dose activity change, negative = less growth; hit rate 0.21% among 360,000; active = well fitted falling curve with a large enough effect; inconclusive = small, poorly fitted or top-dose-only effect; inactive = no such curve, though single readings can be large or run the other way;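 note: % is set by controls: 0 for no effect and ±100 for the full control effect; nearly all actives have a fitted effect of over 50% in size; the assay follows cell death caused by Vpr and the record does not say whether a fall means rescue or toxicity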
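Fission yeast RE007 carrying one integrated HIV-1 vpr copy, seeded at OD 0.01 in PMG+AL medium with 23 nL pinned compound. Grown 24 h at 30 degrees; viability read by BacTiter-Glo luminescence after 5 min.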
Active calls of the source: *; ? = inconclusive; / = not tested or not shown; & = joins results of further samples; [ ] = another dose, or the depositor's remark. Unless noted, calls come from the whole dose curve; as a rule, active means well fitted rising curve with a large enough effect; inconclusive means small, poorly fitted or top-dose-only effect; inactive means no such curve, though single readings can be large or run the other way. Potency is the fitted concentration of half-maximal effect.

molecule	Marburg entry inh	RE007 growth inh	SARS PLP yeast	Cruzain noTriton	Lassa entry inh	NS1 function inh	StopGo reporter	Cruzain Triton
O=C(Nc1nc2c(F)cc(F)cc2s1)c1ccccn1	?	?	-0.1%	/	7.08µM*	/	-68.4%	/
CCOP(=O)(OCC)C(Nc1cccc([N+](=O)[O-])c1)c1ccccc1 (stereo not drawn)	-11.2%	9.4%	1.1%	/	-2.0%	-1.2%	-22.4%	/
Cc1c(Cl)cccc1NC(=O)C(C)n1nc(C)c2c(C)n(-c3ccccc3)nc2c1=O (stereo not drawn)	/	/	/	-3.3%	0.1%[46.1 µM]	/	-16.5%	-4.2%
Cc1ccccc1N1CCN(CCN2C(=O)CC(=C3c4ccccc4-c4ccccc43)C2=O)CC1	-10.3%	-13.2%	/	/	-2.1%	/	-23.2%	/
COc1ccccc1Cn1cc(C(=O)c2ccc(Cl)cc2)c(=O)c2cc3c(cc21)OCCO3	-1.5%[46.1 µM]	/	/	17.5%	18.9%[46.1 µM]	/	-13.5%	1.8%
[O-]/C(=C(\C(=S)NCc1ccc2c(c1)OCO2)[n+]1ccccc1)c1ccc(Cl)s1	/	6.4%	-2.1%	/	/	8.8%	65.6%[activator]	/
CCOc1ccccc1C(=O)NCC(=O)NCCCc1ccccc1	-24.0%	2.4%	-4.4%	/	16.5%	/	-11.4%	/
CCN(C(=O)CSc1nc2ccc(Cl)cc2[nH]1)C1CCS(=O)(=O)C1 (stereo not drawn)	0.5%	8.3%	-4.9%	/	3.8%	/	-4.5%	/
CN1CCN(C(=O)c2cc(-c3ccco3)on2)CC1	?	-3.4%	4.9%	2.8%	?	1.5%	53.6%[activator]	2.4%
O=C(CO/N=C/c1ccc(OC(F)F)cc1)NCc1ccc(F)cc1	-22.5%[46.1 µM]	5.2%	1.9%	/	/	/	?	/
COc1ccccc1C(=O)N/C(N)=N/c1nc2ccccc2o1	29.2%[46.1 µM]	-16.4%	-0.5%	0.8%	2.8%	-0.2%	10.2%	1.9%
CCOC(=O)N1CCC(N2CCN(Cc3ccc(F)c(F)c3)C(CCO)C2)CC1 (stereo not drawn)	/	3.4%	0.9%	/	/	0.8%	-7.5%	/
COc1ccc(CNC(=O)c2ccc(-c3nc(CSc4ccc(C)cc4)c(C)o3)cc2)c(OC)c1	/	/	/	2.5%	9.3%[46.1 µM]	/	-24.8%	4.7%
Cc1ccccc1C(=O)NC(CC(C)C)C(=O)OCC(=O)c1c(N)n(C)c(=O)n(C)c1=O (stereo not drawn)	28.9%[14.2 µM]	0.9%	0.2%	/	5.9%	/	-11.3%	/
CCOC(=O)N1CCN(C(=S)Nc2ccccc2C(C)C)CC1	-8.3%[46.1 µM]	1.2%	-4.9%	/	?	/	-8.4%	/
COc1ccc(NC(=S)N2CCC(c3ccccc3)C2)cc1 (stereo not drawn)	/	3.9%	-4.6%	/	/	-11.6%	92.2%[activator]	/
CCN(CC)CCNCC(=O)N1c2ccccc2CCc2ccc(NC(=O)OC)cc21	?	0.7%	-4.2%	/	?	4.3%	12.4%	/
COC(=O)CSc1nnc(-c2ccoc2C)n1-c1ccc(OC)cc1	-0.9%	-9.2%	-6.6%	0.7%	-7.9%	-55.5%	-23.7%	3.1%
CC1CCC(C(=O)NC(C(=O)Nc2ccccn2)C(C)C)CC1 (stereo not drawn)	-13.6%[46.1 µM]	7.1%	0.7%	/	28.3%	-0.2%	?	/
CCCC(=O)c1cc2ccccc2oc1=O	10.1%	?	8.7%	-1.4%	8.8%	-12.4%	9.7%	-1.5%
O=C1Nc2ccccc2OC1CC(=O)N1CCCC1 (stereo not drawn)	/	-6.4%	-2.4%	-5.5%	/	10.1%	-4.0%	3.4%
COc1ccc(CN2CC(C(N)=O)Oc3ccccc32)cc1F (stereo not drawn)	-15.9%[46.1 µM]	0.0%	-1.8%	/	/	-11.9%	-11.4%	/
Cc1ccc(NC(=O)CSc2nnc(-c3cc(C)[nH]n3)n2N)cc1	18.7%[46.1 µM]	-1.2%	-0.5%	/	11.4%[46.1 µM]	0.4%	7.4%	/
CC1(C)CC(=O)C([N+](=O)[O-])=C(NCCCO)C1	?	-20.2%	?	-6.4%	8.0%	-6.0%	7.4%	-5.2%
C[C@@H](C(=O)Nc1ccc2ccccc2c1)[C@H]1C[C@]1(C)[C@H](NC(=O)c1cnccn1)c1ccccc1	-28.5%	7.0%	-2.7%	3.7%&-7.0%	5.8%	1.0%	-27.8%	-2.0%&-0.8%
Cc1ccccc1NC(=O)CCC(=O)OCC(=O)c1ccc(-c2ccccc2)cc1	4.5%	15.3%	0.1%	12.6µM*	0.1%	12.7%	36.1%[activator]	2.8%
CCn1c2ccccc2c2nc3ccccc3nc21	24.5%	-22.8%	-14.7%	10.7%	?	-61.3%	-4.2%	-3.0%
CC(=O)N1CCN(c2ccccc2NC(=O)c2ccc(-c3cccc([N+](=O)[O-])c3)o2)CC1	?	-7.6%	-2.1%	/	/	-1.1%	-11.9%	/
O=C(COC(=O)c1cccc(O)c1)Nc1ccc(OC(F)F)cc1	6.3%	-8.1%	0.1%	/	-5.6%	/	15.6%	/
Cn1ncc(N)c1C(=O)Nc1cccc(C(F)(F)F)c1	2.5%[46.1 µM]	-3.2%	0.0%	-0.7%	5.8%	1.1%	-6.2%	-3.7%

The closing 4 compounds of the section before open the next one:
molecule	Marburg entry inh	RE007 growth inh	SARS PLP yeast	Cruzain noTriton	Lassa entry inh	NS1 function inh	StopGo reporter	Cruzain Triton
CCn1c2ccccc2c2nc3ccccc3nc21	24.5%	-22.8%	-14.7%	10.7%	?	-61.3%	-4.2%	-3.0%
CC(=O)N1CCN(c2ccccc2NC(=O)c2ccc(-c3cccc([N+](=O)[O-])c3)o2)CC1	?	-7.6%	-2.1%	/	/	-1.1%	-11.9%	/
O=C(COC(=O)c1cccc(O)c1)Nc1ccc(OC(F)F)cc1	6.3%	-8.1%	0.1%	/	-5.6%	/	15.6%	/
Cn1ncc(N)c1C(=O)Nc1cccc(C(F)(F)F)c1	2.5%[46.1 µM]	-3.2%	0.0%	-0.7%	5.8%	1.1%	-6.2%	-3.7%
CCc1ccc(NC(=O)c2ccc3c(=O)n4c(nc3c2)CCCCC4)cc1	/	12.9%	4.6%	/	/	-1.2%	-32.8%	/
Cc1ccc(N2C(=O)N3[C@H]4c5ccccc5OC[C@@H]4[C@@H](c4ccccc4)[C@@]3(C)C2=O)cc1	/	23.2%	-6.5%	/	/	-1.3%	-21.2%	/
C=CCSc1nnc2c(n1)OC=Nc1ccccc1-2	-0.5%	?	-5.6%	-11.9%	-10.5%	-74.8%	27.9%	-5.0%
COc1cccc(/C=C(/C(=O)OCC(=O)NC2CCCC(C)C2C)c2ccccc2)c1 (stereo not drawn)	?	13.6%	-27.8%	7.3%	?	-17.8%	-21.1%	-6.7%
N#Cc1ccccc1S(=O)(=O)N1CCC(Oc2ccc(-n3cnnn3)cc2)CC1	?	/	/	5.0%	?	/	?	-1.3%
OCCN(Cc1nc(-c2ccc3c(c2)OCO3)no1)Cc1cccs1	/	6.1%	-3.4%	/	/	-37.4%	3.1%	/
COc1ccc(NC(=O)CSc2nnc(NC(=O)C3CCC3)s2)cc1	1.3%[46.1 µM]	15.6%	/	/	7.2%	26.2%	-6.1%	/
COC(=O)c1c(NC(=O)c2c(Cl)cnn2C)sc(C)c1C	/	-0.5%	1.3%	/	/	2.6%	-24.9%	/
COc1ccccc1CNC(=O)c1ccc2c(c1)sc1nc(-c3ccc(F)cc3)cn12	/	/	/	15.3%	11.6%[46.1 µM]	/	-18.4%	-1.3%
CC(C)c1nc(C(=O)N2CCCC(N3CCN(c4cccc(Cl)c4)CC3)C2)cs1 (stereo not drawn)	?	10.8%	-2.3%	/	?	-22.5%	-25.0%	/
COCCN(C(=O)Cc1cccs1)C(C(=O)NCc1ccc(OC)cc1)c1ccc(OC)cc1 (stereo not drawn)	0.1%	8.4%	-0.4%	4.3%	?	-5.6%	/	2.3%
Cc1ccc(C(=O)CSc2nnc3ccccn23)c(C)c1	/	17.0%	0.0%	/	?	-2.2%	-16.5%	/
CCOC(=O)Cc1csc(SCC(=O)Nc2cc(C)ccc2OC)n1	7.2%[46.1 µM]	13.5%	-0.4%	/	/	-10.5%	-27.4%	/
CCOc1ccc(NC(=O)COC(=O)Cn2cnc3ccccc32)cc1	6.3%	11.6%	-4.2%	/	5.3%	/	-3.6%	/
O=C(CS(=O)(=O)c1cn(CC(=O)N2CCOCC2)c2ccccc12)NCc1ccccc1	?	-6.6%	/	/	6.3%	/	2.7%	/
CCC(=O)NC(=S)Nc1ccc(N2CCOCC2)cc1	?	0.4%	-0.8%	/	-1.1%[46.1 µM]	8.4%	40.8%[activator]	/
CCOC(=O)c1c(C)n(-c2ccccc2)c2ccc(OCCN(C)C)cc12	?	11.8%	4.8%	/	?	4.0%	31.5%	/
COc1ccccc1C#Cc1ccc2c(=O)c3ccccc3n(C)c2c1	/	-4.3%	-0.1%	/	/	-10.4%	-7.7%	/
COc1ccc(CNC(=O)C2(C)Cc3ccccc3C(=O)O2)cc1 (stereo not drawn)	/	2.6%	-0.3%	/	/	2.8%	-6.0%	/
